# High-throughput results deposited in PubChem BioAssay by Broad Institute.
# rRNA inh HTS = selective bacterial rRNA inhibition in E. coli | AID 720706 | hit rate 1.6% among 350,000 | GFP signal change (wild-type ribosome), % (test concentration not listed) | E. coli WT GFP vs humanized-ribosome RFP mutants, fluorescence, 24 h; stronger effect = lower value; DMSO median 0, no signal -100;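 active = significant combined selectivity score with lowered wild-type GFP, culture density cut under 30%, mutant RFP and density less affected; inactive = any of these conditions unmet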; also: one replicate is shown; some compounds called inactive have numbers as strong as hits
# rRNA inh HTS OD600 = second read-out of rRNA inh HTS, no call of its own (marks repeat the call); OD600 change, %; measured here: OD600 growth;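 optical density of the mix in the first replicate; 0 = DMSO median and -100 = no signal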
# rRNA inh HTS RFP = second read-out of rRNA inh HTS, no call of its own (marks repeat the call); RFP signal change, %; measured here: RFP humanized mutant strains;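 first replicate; 0 = DMSO median and -100 = no signal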
# * hit, by the source's call; & = joins results of further samples.
rRNA inh HTS | rRNA inh HTS RFP | rRNA inh HTS OD600 | Molecule
-7 | 6.8 | -8 | C[C@H](CO)N1C[C@H](C)[C@H](CN(C)Cc2cccnc2)OCc2ccccc2-c2c(n(C)c3ccccc23)C1=O
-2 | 1.6 | -1 | O=C1CN(S(=O)(=O)c2ccccc2)C[C@@H]2[C@H](c3ccc(C#CCc4ccccc4)cc3)[C@H](CO)N12
-59 | -19 | -82 | O=C(Nc1ccc(Cl)cc1)N1C[C@H]2[C@@H](c3ccccc31)[C@H](CO)N2CC1CCCC1
1 | 1.0 | -29 | COc1ccc(NC(=O)Nc2ccc3c(c2)[C@@H]2C[C@H](CC(=O)NCc4ccc(-c5ccccc5)cc4)O[C@@H](CO)[C@@H]2O3)cc1
1 | -2.8 | -1 | CCCN(C)C[C@H]1Oc2cc(C#Cc3cccnc3)ccc2S(=O)(=O)N([C@H](C)CO)C[C@H]1C
-24 | -2.3 | -40 | COC(=O)[C@]12CCCCC=C1N(Cc1ccco1)C(=O)[C@H](CC(=O)NCCCCc1ccccc1)C2
1 | 2.9 | 2 | COCc1cn(CC[C@@H]2CC[C@@H](NC(=O)Nc3ccccc3)[C@H](CO)O2)nn1
-3 | 1.5 | -13 | C/C=C/c1ccc2c(c1)O[C@@H](CN(C)C(=O)Nc1cccc(F)c1)[C@@H](C)CN([C@H](C)CO)S2(=O)=O
1 | 0.4 | 6 | C[C@H](CO)N1C[C@H](C)[C@H](CN(C)S(=O)(=O)c2ccc(Cl)cc2)OCCCC[C@H](C)Oc2ccc(NS(=O)(=O)c3ccc(F)cc3)cc2C1=O
3 | -0.6 | 7 | C[C@H](CO)N1C[C@H](C)[C@@H](CN(C)Cc2ccccc2)Oc2ccc(NC(=O)Cn3cnnn3)cc2CC1=O
-5 | -1.4 | -9 | Cc1noc(C)c1NC(=O)Nc1cccc2c1O[C@H](CN(C)Cc1ccc(Cl)c(Cl)c1)[C@@H](C)CN([C@H](C)CO)C2=O
-1 | -0.1 | 2 | COc1ccc(S(=O)(=O)N[C@H]2CC[C@H](CC(=O)O)O[C@H]2CO)cc1
2 | 2.4 | -2 | CCCC#Cc1cnc2c(c1)C(=O)N([C@@H](C)CO)C[C@H](C)[C@H](CN(C)Cc1ccccc1F)O2
2 | -2.7 | 3 | COC(=O)c1cn(-c2nc3ccccc3s2)nn1
3 | 3.6 | 13 | CCCn1c(C)cc(C(=O)CN2C(=O)c3ccccc3S2(=O)=O)c1C
-4 | -0.9 | 0 | C[C@H]1CN([C@@H](C)CO)C(=O)c2cccc(NC(=O)CCCCCC(=O)Nc3ccccc3N)c2O[C@@H]1CN(C)Cc1ccc(Cl)c(Cl)c1
2 | -0.7 | -10 | COc1ccc([C@H]2CC(=O)C[C@@H](CCn3cc(C(C)C)nn3)O2)cc1
-3 | -0.7 | -7 | C[C@@H]1CN([C@@H](C)CO)C(=O)c2cc(NC(=O)C3CCCCC3)ccc2O[C@@H](C)CCCCO[C@@H]1CN(C)S(=O)(=O)c1cccs1
12 | 0.7 | 13 | CCOC(=O)C1(C)CCN1C(=O)c1ccc(C(C)(C)C)cc1 (stereo unspecified)
-1 | -0.3 | 2 | COC(=O)C[C@@H]1CC[C@H]2[C@@H](COC[C@@H](O)CN2S(=O)(=O)c2ccccc2C)O1
4 | -1.4 | 1 | C[C@H]1CN([C@@H](C)CO)C(=O)c2cccc(NS(=O)(=O)c3ccccc3)c2O[C@H]1CN(C)C
-4 | 2.4 | 2 | O=C(Nc1ccc2c(c1)[C@@H]1C[C@@H](CC(=O)N3CCCCC3)O[C@H](CO)[C@@H]1O2)c1ccc2c(c1)OCO2
5 | -3.8 | 9 | O=C(CC(F)(F)F)N1C[C@H]2[C@@H](c3ccccc31)[C@H](CO)N2C(=O)C1CCOCC1
1 | -1.9 | 8 | C[C@H]1CN([C@@H](C)CO)C(=O)c2cc(NC(=O)Nc3ccc(F)cc3)ccc2O[C@@H]1CN(C)C
-15 | 11 | -39 | COc1ccc(S(=O)(=O)N[C@H]2C=C[C@H](CC(=O)N3CCC(Cc4ccccc4)CC3)O[C@@H]2CO)cc1
-6&-1 | -2.3&-2.1 | -3&12 | COc1ccc(NC(=O)N(C)C[C@H]2OCCCC[C@H](C)Oc3ccc(NC(=O)Nc4cccc5ccccc45)cc3C(=O)N([C@@H](C)CO)C[C@H]2C)cc1
10&2 | 4.3&0.6 | 0&6 | C[C@@H]1CN([C@@H](C)CO)C(=O)CCCn2nncc2CO[C@H]1CN(C)S(=O)(=O)c1ccc(-n2cccn2)cc1
16 | 0.3 | 12 | CC(C)(C)OC(=O)N1CCc2onc(-c3ccc(Br)cc3)c2C1=O
-6 | -1.6 | -12 | C[C@@H]1CN([C@H](C)CO)C(=O)c2cc(-c3ccccc3)cnc2O[C@H]1CN(C)C(=O)c1ccccc1F
1 | -2.6 | 1 | N#C[C@H]1[C@@H](c2ccc(C#CC3CC3)cc2)[C@@H](CO)N1C(=O)Nc1ccc(F)cc1
1 | -5.8 | 6 | Cc1ccc(S(=O)(=O)N[C@H]2CC[C@H](CC(=O)NCc3ccccc3F)O[C@H]2CO)cc1
5 | -2.3 | 7 | CO[C@H]1CN(C)C(=O)c2ccc(NC(=O)Nc3c(C)noc3C)cc2OC[C@@H](C)N(CC2CC2)C[C@@H]1C
4 | 0.5 | 15 | C[C@@H]1CN([C@H](C)CO)C(=O)c2cc(NC(=O)Nc3ccc4c(c3)OCO4)ccc2O[C@@H]1CN(C)C(=O)Nc1ccc2c(c1)OCO2
0 | 0.7 | -16 | CCC(=O)N1CCC2(CC1)CN(Cc1ccccc1Cl)[C@@H](CO)c1c2c2ccc(OC)cc2n1C
2 | -3.7 | -2 | O=C(C[C@H]1CC[C@H]2[C@@H](COC[C@H](O)CN2S(=O)(=O)c2ccc(Cl)cc2)O1)NCCN1CCCC1
-2 | 7.3 | 0 | C[C@@H]1CN([C@H](C)CO)C(=O)c2cc(NS(=O)(=O)c3cn(C)cn3)ccc2O[C@@H]1CN(C)Cc1ccc(-c2ccccc2)cc1
5 | -0.1 | -3 | CCCN(C)C[C@@H]1Oc2ncc(-c3ccccc3OC)cc2C(=O)N([C@@H](C)CO)C[C@H]1C
-21 | -4.1 | -13 | COc1ccccc1Cc1c(-c2ccc(Cl)cc2)nc2ccc(C)cn12
3 | 1.1 | 10 | CN(C)C(=O)C[C@@H]1C=C[C@@H](NC(=O)NC2CCCC2)[C@H](CO)O1
-3 | -3.0 | -2 | C[C@@H]1CN([C@@H](C)CO)C(=O)c2cc(NC(=O)Nc3ccc4c(c3)OCO4)ccc2O[C@@H](C)CCCCO[C@@H]1CN(C)C(=O)Cc1ccccc1
0 | -1.5 | 0 | Cc1noc(C)c1S(=O)(=O)Nc1cccc2c1O[C@H](CN(C)Cc1ccc(C(=O)O)cc1)[C@@H](C)CN([C@H](C)CO)C2=O
0 | -1.5 | 0 | CO[C@H]1CN(C)C(=O)c2cc(NS(C)(=O)=O)ccc2OC[C@H](C)N(Cc2cncnc2)C[C@@H]1C
-4 | 1.2 | -3 | COc1ccc(S(=O)(=O)Nc2cccc3c2O[C@@H](CN(C)Cc2ccc(Cl)c(Cl)c2)[C@H](C)CN([C@@H](C)CO)C3=O)cc1
-9 | 7.3 | -35 | CC[C@@H]1CC=CC[C@H](C)Oc2ccccc2C(=O)N(C)[C@@H](Cc2ccccc2)C(=O)N1 (mixture of isomers)
7 | 0.5 | 6 | CC(C=CC(O)=C1C(=O)CNC1=O)=C[C@@H](C)C1OC2(C)OC(C(=O)C3O[C@@]32C)C1C (stereo partly specified)
-40 | 1.3 | -71 | O=C1NC[C@@H](CCCCN2C[C@H](Cc3ccc(O)cc3)N(Cc3ccccc3)C(=O)C2=O)N(CCC2CCCCC2)C1=O
-3 | -0.7 | 9 | Cc1ccccc1NC(=O)C[C@H]1CC[C@H]2[C@@H](COc3ccc(NC(=O)C4CCC4)cc3C(=O)N2C)O1
-7 | -1.1 | 6 | COc1cc(C(=O)NC(=S)Nc2ccc3ccccc3c2)cc(OC)c1OC
4 | -3.5 | 7 | O=C(C[C@H]1CC[C@@H]2[C@H](COC[C@@H](O)CN2S(=O)(=O)c2ccc(F)cc2)O1)NCC1CC1
-1 | 0.1 | 0 | C/C=C/c1ccc([C@H]2[C@@H](CO)N(S(C)(=O)=O)[C@H]2CNC(C)C)cc1
-20 | -1.8 | -16 | Cc1cc(O)cc(O)c1/C=N/NC(=O)c1ccc2c(c1)OCCO2
0 | -0.7 | 3 | CCC(=O)N1C[C@H](C)[C@H](OC)CN(C)C(=O)c2ccc(NC(=O)NC(C)C)cc2OC[C@H]1C
-1 | -0.7 | 2 | O=C(Cc1ccccn1)N1CC(=O)N2[C@H](CO)[C@H](c3ccc(-c4ccc(F)cc4)cc3)[C@H]2C1
0 | -1.1 | 1 | CCC(=O)Nc1ccc2c(c1)C(=O)N(C)C[C@H](OC)[C@@H](C)CN(Cc1ccccc1OC)[C@H](C)CO2
6 | 1.6 | 12 | Fc1ccc(-c2nc3ccc(Cl)cn3c2Cc2ccccc2)cc1
2 | -1.5 | 14 | CCNC(=O)C[C@@H]1C=C[C@H](NC(=O)C2CC2)[C@@H](CO)O1
0&-2&7 | -1.9&-1.7&-2.1 | 2&-4&10 | CO[C@@H]1CN(C)C(=O)c2ccc(NC(=O)c3ccccc3F)cc2OC[C@@H](C)N(CC2CCOCC2)C[C@@H]1C
15 | -1.7 | 12 | CCOC(=O)C1c2cccc(O)c2CCN1C(C)=O (stereo unspecified)
0 | -1.3 | 1 | CCCNC(=O)C[C@H]1C[C@@H]2c3cc(NS(=O)(=O)c4ccc(OC)cc4)ccc3O[C@@H]2[C@H](CO)O1
-7 | -4.8 | 6 | CCNC(=S)Nc1ccc2c(c1)c(=O)n(C)n2Cc1ccc(Cl)cc1

# Reformatted as labelled records: entries from further up.
CCNC(=S)Nc1ccc2c(c1)c(=O)n(C)n2Cc1ccc(Cl)cc1
  rRNA inh HTS = -7	rRNA inh HTS RFP = -4.8	rRNA inh HTS OD600 = 6

C[C@@H]1CN([C@@H](C)CO)C(=O)c2cc(NC(=O)Nc3ccc4c(c3)OCO4)ccc2O[C@@H](C)CCCCO[C@@H]1CN(C)C(=O)Cc1ccccc1
  rRNA inh HTS = -3	rRNA inh HTS RFP = -3.0	rRNA inh HTS OD600 = -2

CO[C@@H]1CN(C)C(=O)c2ccc(NC(=O)c3ccccc3F)cc2OC[C@@H](C)N(CC2CCOCC2)C[C@@H]1C
  rRNA inh HTS = 0&-2&7	rRNA inh HTS RFP = -1.9&-1.7&-2.1	rRNA inh HTS OD600 = 2&-4&10

Cc1ccc(S(=O)(=O)N[C@H]2CC[C@H](CC(=O)NCc3ccccc3F)O[C@H]2CO)cc1
  rRNA inh HTS = 1	rRNA inh HTS RFP = -5.8	rRNA inh HTS OD600 = 6

# Random excerpt: 2 entries already listed, in no set order.
rRNA inh HTS | rRNA inh HTS RFP | rRNA inh HTS OD600 | Molecule
-1 | -0.7 | 2 | O=C(Cc1ccccn1)N1CC(=O)N2[C@H](CO)[C@H](c3ccc(-c4ccc(F)cc4)cc3)[C@H]2C1
-7 | -1.1 | 6 | COc1cc(C(=O)NC(=S)Nc2ccc3ccccc3c2)cc(OC)c1OC

# Going on with the list:
rRNA inh HTS | rRNA inh HTS RFP | rRNA inh HTS OD600 | Molecule
3 | 2.0 | 6 | O=C(C[C@@H]1C=C[C@@H](NC(=O)C2CC2)[C@@H](CO)O1)Nc1ccccc1
-25 | -6.4 | -40 | NC(=S)NN=Cc1nccc2c(C(F)(F)F)cccc12
-26 | 34 | -59 | CCCC#Cc1ccc([C@@H]2[C@@H](CO)N3C(=O)CN(C(=O)Nc4ccccc4)C[C@@H]23)cc1
0 | 0.3 | 10 | C[C@H](CO)N1C[C@H](C)[C@@H](CN(C)Cc2ccc(Cl)c(Cl)c2)OCCCC[C@H](C)Oc2ccc(NC(=O)c3ccccc3)cc2C1=O
4 | -0.8 | 8 | Cc1noc(C)c1NC(=O)Nc1ccc2c(c1)C(=O)N([C@@H](C)CO)C[C@H](C)[C@@H](CN(C)S(C)(=O)=O)O2
0 | 2.8 | 0 | CC(=O)Nc1ccc2c(c1)C(=O)N(C)[C@H]1CC[C@@H](CC(=O)NCC3CCCCC3)O[C@H]1CO2
2 | -0.1 | 9 | CC(C)C#Cc1ccc2c(c1)O[C@H](CN(C)C)[C@@H](C)CN([C@@H](C)CO)S2(=O)=O
-3 | 0.4 | 5 | O=C(Cc1cccnc1)N1CC(=O)N2[C@@H](CO)[C@H](c3ccc(/C=C/c4ccccc4)cc3)[C@@H]2C1
6 | 0.5 | 11 | C[C@@H]1CN([C@@H](C)CO)C(=O)c2cc(-c3cncnc3)cnc2O[C@H]1CN(C)C(=O)CN1CCOCC1
10 | -3.6 | 13 | CN(C)CC(=O)N1CC[C@@H]2[C@H]1c1cc(-c3ccccc3)ccc1N(C)[C@H]2CO
21 | 6.3 | -2 | CCNC(=O)c1cc2c(c(-c3cccc(-c4cc5ccccc5o4)c3)n1)[C@H](CCO)N(C(=O)NC(C)C)C2
2 | -0.3 | 10 | C[C@H]1CN([C@@H](C)CO)C(=O)c2cccc(NC(=O)c3cnccn3)c2O[C@H]1CN(C)Cc1ccccc1
6 | -0.2 | -6 | COC(=O)[C@H]1[C@@H](O)[C@@]2(O)c3c(OC)cc(OC)cc3O[C@@]2(c2ccc(OC)cc2)[C@@H]1c1ccc(F)cc1
0 | -1.0 | 1 | C[C@@H]1CN([C@H](C)CO)C(=O)c2cc(NC(=O)CCC(F)(F)F)ccc2O[C@@H](C)CCCCO[C@H]1CN(C)C(=O)c1ccncc1
4 | -0.6 | 3 | C[C@H]1CN([C@@H](C)CO)C(=O)Cc2cc(NC(=O)Cn3cnnn3)ccc2O[C@H]1CN(C)Cc1ccccc1

# Some of the compounds tested; rates above refer to the full screens.
